# From PubChem BioAssay
# FPR ligand = human FPR ligands by binding competition, primary screen, cell-based, FPRL1 counter-screen, flow cytometry; fMet-Leu-Phe receptor (Homo sapiens), P21462; FPR-expressing cells, fluorescent ligand binding; inhibition, %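 (tested at 6.7 µM)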; hit rate 0.74% among 24,000; AID 440, 2006;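 note: 0% = buffer wells and 100% = receptor blocker peptide wells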
# Target sequence (P21462 whole entry, looked up): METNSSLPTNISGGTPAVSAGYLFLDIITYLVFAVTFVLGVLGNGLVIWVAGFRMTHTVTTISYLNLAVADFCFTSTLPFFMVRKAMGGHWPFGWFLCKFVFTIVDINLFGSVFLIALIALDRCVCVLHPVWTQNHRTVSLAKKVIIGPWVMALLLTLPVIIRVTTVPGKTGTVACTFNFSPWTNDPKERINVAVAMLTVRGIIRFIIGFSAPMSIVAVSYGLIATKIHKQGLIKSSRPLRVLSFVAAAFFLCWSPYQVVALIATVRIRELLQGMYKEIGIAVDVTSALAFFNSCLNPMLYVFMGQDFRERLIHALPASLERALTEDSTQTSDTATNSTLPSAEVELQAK
# VCAM-1 down imaging = inhibitors of TNFa-induced VCAM-1 surface display, imaging, high-content imaging, pooled HUVEC, TNFa stimulus (AID 456); one-dose inhibition, % at 5 µM; IC50 in µM for titrated hits; hit rate 0.2% among 10,000; HUVEC TNFa-induced VCAM-1 surface expression, immunofluorescence imaging; numbers were filed only for top-ranked candidate wells;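 active = top tenth filtered wells with inhibition above zero that passed visual or statistical confirmation; inactive = the rest, including hits rejected on review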;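 note: 0% = stimulated vehicle wells and 100% = unstimulated cells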
# VCAM-1 inhibition = inhibitors of TNFa-induced VCAM-1 surface display, cell-based, plate reader, pooled HUVEC, TNFa stimulus (AID 454); inhibition, % at 5 µM; HUVEC TNFa-induced VCAM-1 surface immunofluorescence, plate reader; numbers were filed only for top-ranked candidate wells; hit rate 0.2% among 10,000;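 active = compound among top-ranked inhibitors of TNF-induced VCAM-1 adhesion protein staining, with the hit upheld by image or statistical review; inactive = the rest, including hits rejected on review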;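 note: 0% = TNFa with vehicle and 100% = cells without TNFa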
# VCAM-1 up imaging = enhancers of VCAM-1 display on endothelial cells, imaging, high-content imaging, pooled HUVEC, TNFa stimulus (AID 457). Pooled HUVEC, TNFa-induced VCAM-1 immunofluorescence imaging; hits of this screen are not shown here. calls only. hit rate 0.2% among 10,000;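 active = a top-ranked rise in VCAM-1 staining upheld on image or statistical review; inactive = the rest, including candidates rejected on review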;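 note: compounds tested at 5 µM in the well; cells exposed to compound for 24 hours before fixing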
# FPRL1 binder = human FPRL1 ligands by binding competition, primary screen, cell-based, FPR counter-screen, flow cytometry. N-formyl peptide receptor 2 (Homo sapiens), P25090. FPRL1-expressing cells, fluorescent ligand binding inhibition. inhibition, %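 (tested at 6.7 µM)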. hit rate 0.3% among 24,000. AID 441, 2006;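 note: 0% = buffer alone and 100% = receptor blocker peptide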
# Target sequence (P25090 whole entry, looked up): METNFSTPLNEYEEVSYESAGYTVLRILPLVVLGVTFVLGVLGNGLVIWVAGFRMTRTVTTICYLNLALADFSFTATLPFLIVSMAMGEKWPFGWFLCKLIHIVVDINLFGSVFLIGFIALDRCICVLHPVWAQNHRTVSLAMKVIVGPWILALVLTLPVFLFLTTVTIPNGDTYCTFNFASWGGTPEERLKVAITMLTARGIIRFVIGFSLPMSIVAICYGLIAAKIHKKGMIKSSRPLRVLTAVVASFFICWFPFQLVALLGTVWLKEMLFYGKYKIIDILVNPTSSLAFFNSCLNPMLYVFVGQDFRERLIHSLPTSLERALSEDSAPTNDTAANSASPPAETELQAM
# Numbers without * were called inactive; i = inactive; ? = inconclusive; . = no result given.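 Rule for the calls, unless noted: active = mean above 30%; inconclusive = self-fluorescent; inactive = the rest.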 A portion of the library; the hit share may differ from the screen's.
no. | SMILES | FPR ligand | FPRL1 binder | VCAM-1 up imaging | VCAM-1 down imaging | VCAM-1 inhibition
1 | CCn1c(SCC(=O)Nc2nc(C)cs2)nnc1-c1ccco1 | 5 | 2 | i | i | i
2 | O=C(c1ccccc1)c1ccncc1 | 0 | 1 | i | i | i
3 | O=c1[nH]c2ccc(S(=O)(=O)N3CCN(c4ccccc4F)CC3)cc2s1 | -1 | -5 | . | . | .
4 | CCOc1ccc(N2Cc3ncccc3C2=O)cc1 | -3 | -4 | . | . | .
5 | Cc1ccc(C)c2[nH]c(=O)c(CCNC(=O)CC(C)(C)C)cc12 | -7 | -7 | i | i | i
6 | CC(C)c1ccc(NS(=O)(=O)c2ccc3[nH]cc(C(=O)N4CCC(C(N)=O)CC4)c(=O)c3c2)cc1 | 12 | 2 | . | . | .
7 | CN(Cc1ccccc1)S(=O)(=O)c1ccc(S(=O)(=O)N2CCN(CCC#N)CC2)cc1 | 0 | 4 | i | i | i
8 | Cc1cc(C)n(-c2nc(C)nc3sc4c(c23)CCC(C)C4)n1 (stereo unspecified) | 2 | 5 | i | i | i
9 | CCOC(=O)c1cc(NC(=O)SCC(=O)O)c(C)nc1C | 4 | 4 | i | i | i
10 | Cc1c2cnn(-c3ccccc3)c(=O)c2c(C)n1CCCC(=O)N1CCN(c2ncccn2)CC1 | 1 | 2 | . | . | .
11 | CCCCOc1ccc(-c2ncc(C(=O)OCC)c(N)n2)cc1 | 6 | 2 | i | i | i
12 | COc1ccccc1N1CC(C(=O)Nc2cccc(C(=O)O)c2)CC1=O (stereo unspecified) | 12 | 8 | i | i | i
13 | Cc1ccc(NC(=O)CCn2cccc2)cc1Cl | -2 | -4 | . | . | .
14 | ON1C2CCCCC2N(O)C1c1c(F)c(F)c(F)c(F)c1F (stereo unspecified) | 7 | 3 | i | i | i
15 | CC(C)c1ccc(S(=O)(=O)N2CCN(C(=O)c3cccc(F)c3)CC2)cc1 | 3 | -1 | i | i | i
16 | COc1ccc(CCn2c(=O)[nH]c3cc(C(=O)NCCCN4CCOCC4)ccc3c2=O)cc1OC | 1 | 2 | . | . | .
17 | CN(C(=O)CSc1nc2c(c(=O)[nH]1)CCCC2)C1CCCCC1 | -6 | 8 | i | i | i
18 | CCCC12CN3CC(C)(CN(C1)C31CCCCC1)C2=O | 1 | -4 | . | . | .
19 | CCn1c(-c2cc(Br)ccc2O)n[nH]c1=S | -5 | -6 | i | i | i
20 | C=CCn1c(SCC(=O)Nc2ccccc2OC)nnc1-c1ccccn1 | 1 | -2 | i | i | i
21 | c1ccc2c(c1)CCCC2C1=NCCN1 (stereo unspecified) | 0 | -3 | i | i | i
22 | CCc1ccc2nc(NC3=NCN(CCOC)CN3)nc(C)c2c1 | -5 | 3 | . | . | .
23 | CC1(C)OC(=O)C(=CNc2cccc(C(=O)O)c2)C(=O)O1 | 5 | 6 | . | . | .
24 | CCN(CCNC(=O)C1CCN(S(C)(=O)=O)CC1)c1ccccc1 | 2 | 0 | i | i | i
25 | CCCn1c(C)nc2c(c1=O)c1nc3ccccc3nc1n2CCc1ccccc1 | 4 | -1 | i | i | i
26 | COC(=O)c1cc2sc(Cl)cc2n1CC(=O)N1CCCc2ccccc21 | 1 | 10 | . | . | .
27 | COc1ccc(S(=O)(=O)NCc2ccc3c(c2)OCO3)cc1C(=O)O | 3 | 4 | i | i | i
28 | CCc1ccccc1N=C1SCC(=O)N1C | -4 | 0 | i | i | i
29 | O=C(CSc1nnc(CNC(=O)c2cccs2)o1)Nc1cccc(C(F)(F)F)c1 | -11 | -7 | i | i | i
30 | COc1ccc(C)cc1NC(=O)c1cc2cc3ccc(C)cc3nc2o1 | 0 | 2 | . | . | .

# More results.
no. | SMILES | FPR ligand | FPRL1 binder | VCAM-1 up imaging | VCAM-1 down imaging | VCAM-1 inhibition
31 | CC(NC(=O)OCc1ccccc1)C(=O)N1CC(O)CC1C(=O)O (stereo unspecified) | 0 | 3 | i | i | i
32 | Cc1nc(NC2=NCN(CCCN3CCOCC3)CN2)nc2c(C)cccc12 | -4 | -5 | i | i | i
33 | CCn1c(SCC(=O)C(C)(C)C)nnc1-c1cnccn1 | -4 | 1 | i | i | i
34 | O=C(NCCCN1CCOCC1)c1cc2c(s1)CSC2 | 4 | -2 | . | . | .
35 | CC1CCCC(NC(=O)C2CCN(S(=O)(=O)N3CCOCC3)CC2)C1C (stereo unspecified) | -1 | 4 | . | . | .
36 | CC(C)Oc1ccc(/C(O)=C2/C(=O)C(=O)N(CCN(C)C)C2c2ccco2)cc1 (stereo unspecified) | -13 | -2 | . | . | .
37 | CC1CC(C)CN(S(=O)(=O)c2ccc3c(c2)oc(=O)n3CC(=O)N2CCOCC2)C1 (stereo unspecified) | -1 | -4 | . | . | .
38 | CCCn1c2ccccc2c2cc(C(=O)O)ccc21 | -5 | -2 | . | . | .
39 | O=C(c1cccc(F)c1)N1CCc2ccccc21 | -3 | -2 | i | i | i
40 | COc1cccc(-c2cc(C(=O)Nc3cnn(Cc4ccccc4C)c3)no2)c1 | 14 | 5 | . | . | .
41 | COc1ccc(NC(=O)CSc2nccn2-c2ccccc2)c(OC)c1 | 5 | -3 | . | . | .
42 | CCCCNC(=O)OC(C)CNC(=O)Oc1cccc(C)c1 (stereo unspecified) | 7 | 1 | i | i | i
43 | CCOC(=O)CNC(=O)Nc1ccccc1C(=O)OC | 5 | 0 | i | i | i
44 | CCN1C(=O)c2ccccc2S(=O)c2ccc(C(=O)N3CCCCCC3)cc21 (stereo unspecified) | 2 | 0 | . | . | .
45 | CCc1c(C)sc(NC(=O)c2cc(-c3cc(OC)ccc3OC)on2)c1C#N | 2 | -2 | . | . | .
46 | Cc1ccc(C)c(N2CCN(CCCNC(=O)Cn3cc4c(n3)CCCCC4)CC2)c1 | -10 | -7 | i | 72% | i
47 | COc1ccc(C2c3sc(=O)[nH]c3SC3C4CCC(C4)C23)cc1 (stereo unspecified) | 2 | -4 | i | i | i
48 | CCOC(=O)N1CCN(C(=O)CS(=O)(=O)c2cn(Cc3cccc(F)c3)c3ccccc23)CC1 | 11 | 0 | . | . | .
49 | Cc1cc2c(c(=O)n1CCN(C)C)C(c1ccncc1)C(C#N)=C(N)O2 (stereo unspecified) | -10 | 7 | i | i | i
50 | CC1(C)CC(=O)C(C=Nc2ccncc2)=C(O)C1 | -2 | 3 | i | i | i
51 | COc1ccccc1C(=O)N1CCN(C(=O)c2ccncc2)CC1 | 0 | 2 | i | i | i
52 | COc1cccc(NS(=O)(=O)c2ccc(Br)s2)c1 | ? | ? | . | . | .
53 | CC(C)Cn1c(=O)c(C(=O)NCc2ccccn2)c(O)c2ccccc21 | 14 | -3 | i | i | i
54 | COc1ccccc1NC(=O)C1=C(C)Nc2nc(-c3cccs3)nn2C1c1cccc(O)c1 (stereo unspecified) | -7 | -5 | . | . | .
55 | O=C(Nc1ccc(Br)cc1F)c1ccc2c(c1)N(Cc1ccccc1)C(=O)CS2=O (stereo unspecified) | -1 | -4 | . | . | .
56 | CC1(C)NC(=O)N(CC(O)COc2ccc(-c3ccccc3)cc2)C1=O (stereo unspecified) | -4 | -6 | i | i | i
57 | COc1ccc(CCNC(=O)COc2ccc(S(=O)(=O)N3CCOCC3)cc2)cc1 | -1 | 1 | i | i | i
58 | COC(=O)c1ccc2c(c1)N(Cc1nc(-c3cccc(C)c3)oc1C)C(=O)C1CCCN21 (stereo unspecified) | -7 | -25 | . | . | .
59 | Cc1ccc(C(=O)c2nocc2C(=O)c2cccs2)cc1 | 0 | 5 | . | . | .
60 | CCCC(=O)NCCc1cc2ccc(OC)cc2[nH]c1=O | 3 | -2 | . | . | .

# Quoted from the listing.
# Value for cpd 36 under FPRL1 binder: -2
# Value for cpd 34 under FPR ligand: 4

# The results go on:
no. | SMILES | FPR ligand | FPRL1 binder | VCAM-1 up imaging | VCAM-1 down imaging | VCAM-1 inhibition
61 | CCCN(CCC)c1nc2ccccc2n2c(C)nnc12 | 13 | 6 | i | i | i
62 | CC(=O)c1c(C)[nH]c(C(=O)N2CCN(c3ncccn3)CC2)c1C | 1 | 0 | . | . | .
63 | Nc1nc(SCc2ccc(Cl)cc2Cl)n[nH]1 | 7 | 2 | i | i | i
64 | COc1ccc(OC)c(NC(=O)CCCN2C(=O)C3C4C=CC(C4)C3C2=O)c1 (stereo unspecified) | -2 | -1 | . | . | .
65 | COCCCN1C(=O)C(=O)/C(=C(/O)c2ccc3c(c2)CC(C)O3)C1c1cccnc1 (stereo unspecified) | 34* | 28 | . | . | .
66 | COc1ccc(CC(=O)Nc2ccc(-c3noc(COc4ccccc4C)n3)cc2)cc1 | 3 | 0 | . | . | .

# Structural class, the compounds so far with an NH in an aromatic ring
no. | SMILES | FPR ligand | FPRL1 binder | VCAM-1 up imaging | VCAM-1 down imaging | VCAM-1 inhibition
3 | O=c1[nH]c2ccc(S(=O)(=O)N3CCN(c4ccccc4F)CC3)cc2s1 | -1 | -5 | . | . | .
5 | Cc1ccc(C)c2[nH]c(=O)c(CCNC(=O)CC(C)(C)C)cc12 | -7 | -7 | i | i | i
6 | CC(C)c1ccc(NS(=O)(=O)c2ccc3[nH]cc(C(=O)N4CCC(C(N)=O)CC4)c(=O)c3c2)cc1 | 12 | 2 | . | . | .
16 | COc1ccc(CCn2c(=O)[nH]c3cc(C(=O)NCCCN4CCOCC4)ccc3c2=O)cc1OC | 1 | 2 | . | . | .
17 | CN(C(=O)CSc1nc2c(c(=O)[nH]1)CCCC2)C1CCCCC1 | -6 | 8 | i | i | i
19 | CCn1c(-c2cc(Br)ccc2O)n[nH]c1=S | -5 | -6 | i | i | i
47 | COc1ccc(C2c3sc(=O)[nH]c3SC3C4CCC(C4)C23)cc1 (stereo unspecified) | 2 | -4 | i | i | i
60 | CCCC(=O)NCCc1cc2ccc(OC)cc2[nH]c1=O | 3 | -2 | . | . | .
62 | CC(=O)c1c(C)[nH]c(C(=O)N2CCN(c3ncccn3)CC2)c1C | 1 | 0 | . | . | .
63 | Nc1nc(SCc2ccc(Cl)cc2Cl)n[nH]1 | 7 | 2 | i | i | i
